Assay outcomes as filed in PubChem.
TRPML1 ag: qHTS for Agonists of the Human Mucolipin Transient Receptor Potential 1 (TRPML1) | Mucolipin-1 (Homo sapiens), Q9GZU1 | TRPML1-expressing cells, Ca2+ dye fluorescence, FDSS; host cell line not named in the record; reference of the full effect not given here | 410,000 compounds, 0.12% hits | activation, % (concentration not given with the values) | AID 624414, 2012; in the data active = activation above about 50%; inconclusive = about 30% to 50%; inactive = below about 30%; note: 0% is about no effect; the text of the record puts the active cut at 80%
Target sequence (Q9GZU1 whole entry, looked up): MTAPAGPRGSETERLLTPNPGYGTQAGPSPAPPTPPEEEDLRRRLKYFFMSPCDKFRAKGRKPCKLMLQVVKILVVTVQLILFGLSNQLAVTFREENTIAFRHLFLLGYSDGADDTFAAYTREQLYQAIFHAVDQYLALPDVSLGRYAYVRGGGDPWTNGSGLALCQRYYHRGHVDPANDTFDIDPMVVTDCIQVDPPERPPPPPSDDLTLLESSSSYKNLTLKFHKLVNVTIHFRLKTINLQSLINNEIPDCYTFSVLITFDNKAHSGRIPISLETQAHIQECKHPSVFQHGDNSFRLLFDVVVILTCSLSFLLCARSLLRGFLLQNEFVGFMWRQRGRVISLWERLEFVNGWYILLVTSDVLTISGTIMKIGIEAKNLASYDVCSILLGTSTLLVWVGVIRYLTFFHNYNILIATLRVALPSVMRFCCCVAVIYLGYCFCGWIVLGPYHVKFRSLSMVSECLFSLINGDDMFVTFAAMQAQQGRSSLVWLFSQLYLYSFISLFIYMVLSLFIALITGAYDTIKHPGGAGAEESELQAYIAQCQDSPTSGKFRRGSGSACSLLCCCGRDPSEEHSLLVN
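Tet-induced TRPML1-DL cells, 1,500 per well, cultured overnight, were loaded with a no-wash Ca2+ dye for 45–90 min. Calcium fluorescence was recorded on the FDSS for 110 s after compound addition, before the EC80 agonist (4 uM 54-4) was added.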
CtBP-E1A blk: qHTS Assay for Inhibitors of the CtBP/E1A Interaction; CtBP / adenovirus E1A interaction (AlphaScreen); AlphaScreen GST-E1A/His-CtBP binding, 1536-well; stronger effect = lower value; control for the full effect not named in the record; activity change, % (no concentration beside the values); 340,000 compounds, 0.49% hits; AID 651724, 2012; in the data active means activity change below about -65%; inconclusive means about -30% to -65%; inactive means above about -30%; note: % is set by controls: 0 for no effect and ±100 for the full control effect
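In 5 uL wells, 23 nL compound meets equimolar GST-E1A and His-CtBP (5X stock 125 nM each) for 2 h, 37 °C. Beads (5X, 50 ug/mL) then 1 h, 37 °C, dark.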
PINK1 expr mod: A Quantitative High throughput Screen to Identify Chemical Modulators of PINK1 Expression; 410,000 compounds, 0.2% hits; Potency, µM (top dose mostly 76.6 µM), for inactives: top-dose activation (PINK1 increase), actives largely listed as activators; PINK1 immunofluorescence, high-content cytometry, 24 h; active = well fitted activation curve with a large enough effect; inconclusive = small, poorly fitted or top-dose-only effect; inactive = flat fitted curve, though single readings scatter; cell line not stated here;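 note: potency is the fitted concentration of half-maximal effect; % of control where 0% means no effect; nearly all actives have a fitted effect of over 65% in size; a mitochondrial uncoupler was the plate control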
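A stable cell line was treated with compounds at 5 concentrations for 24 hours, with CCCP as control. PINK1 levels and mitochondrial localization were measured by immunofluorescence with mitochondrial, cell and nuclear markers after fixation, read by laser-scanning cytometry.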
D2 agonist: Beta-Arrestin HTS for Positive Allosteric Modulators of the Human D2 Dopamine Receptor: Agonists; D(2) dopamine receptor (Homo sapiens), P14416; DiscoveRx PathHunter D2 beta-arrestin, luminescence, 90 min; 100% = 57 uM dopamine signal; activation, % (no concentration beside the values); 360,000 compounds, 0.084% hits; AID 624465, 2012; in the data active = activation above about 40%; inconclusive = about 15% to 40%; inactive = below about 15%; note: compound concentration not given in the record; the text of the record calls up to 30% inactive
Target sequence (P14416 whole entry, looked up): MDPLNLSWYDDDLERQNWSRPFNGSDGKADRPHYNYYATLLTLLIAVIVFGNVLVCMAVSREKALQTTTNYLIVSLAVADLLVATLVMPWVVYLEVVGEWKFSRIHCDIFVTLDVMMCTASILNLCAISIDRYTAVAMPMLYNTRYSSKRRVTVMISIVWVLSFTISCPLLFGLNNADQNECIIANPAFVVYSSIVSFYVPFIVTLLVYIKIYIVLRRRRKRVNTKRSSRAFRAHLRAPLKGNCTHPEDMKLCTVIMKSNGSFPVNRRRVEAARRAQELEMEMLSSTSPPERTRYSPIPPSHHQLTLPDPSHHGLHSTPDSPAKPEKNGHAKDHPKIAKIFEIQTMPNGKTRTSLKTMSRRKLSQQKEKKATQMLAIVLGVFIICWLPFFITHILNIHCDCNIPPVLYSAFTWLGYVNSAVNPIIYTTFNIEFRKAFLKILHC
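DiscoveRx PathHunter D2 beta-arrestin cells (2,100/well) attached overnight, then compound-stimulated 90 min at 37 C in HBSS/10 mM HEPES/0.1% Tween-20 buffer; beta-galactosidase complementation read by luminescence after 1 h at ambient temperature. Dopamine 57 uM final (EC100) as control.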
TRPML1 inh: qHTS for Inhibitors of the Human Mucolipin Transient Receptor Potential 1 (TRPML1); Mucolipin-1 (Homo sapiens), Q9GZU1; TRPML1-inducible cells, Ca2+ dye fluorescence, FDSS; stronger effect = lower value; inhibition of EC80 agonist-evoked calcium signal; activity change, negative = inhibition, % (no concentration beside the values); 390,000 compounds, 0.02% hits; in the data active means activity change below about -50%; inconclusive means about -30% to -50%; inactive means above about -30%;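 note: stimulus is agonist 54-4 at its EC80 concentration; % is set by controls: 0 for no effect and ±100 for the full control effect; compound concentration not given in the record; the text of the record puts the active cut at -80%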
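Calcium fluorescence in TRPML1-DL cells induced overnight with Tet: a 110 s read after compound pin addition, then a 110 s antagonist read after challenge with 54-4 at 4 uM final (EC80).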
Six1-Eya2 blk: qHTS Assay for Inhibitors of the Six1/Eya2 Interaction. AlphaScreen GST-Six1/His-Eya2 binding, biochemical; stronger effect = lower value; control for the full effect not named in the record. 360,000 compounds, 0.56% hits. activity change, % (concentration not given with the values). Homeobox protein SIX1 (Homo sapiens) + Protein phosphatase EYA2 (Homo sapiens), …; in the data active = activity change below about -65%; inconclusive = about -30% to -65%; inactive = above about -30%; note: % is set by controls: 0 for no effect and ±100 for the full control effect
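Compounds are tested against tagged Six1 and Eya2 proteins bridged by glutathione donor and nickel acceptor beads; after a one-hour incubation at 37 °C without light, AlphaScreen emission is recorded.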
* hit, by the source's call; ? = inconclusive; · = not tested or not shown; & = joins results of further samples; [ ] = dose if it differs, or a comment.

The opening 2 records as a preview:
SMILES	TRPML1 ag	CtBP-E1A blk	PINK1 expr mod	D2 agonist	TRPML1 inh	Six1-Eya2 blk
Cc1nc(C)c(C(=O)C2=C(O)C(=O)N(CCN(C)C)C2c2cccs2)s1 (configuration not stated)	-1.0	2	-1.2%	-2.0	-3	3
S=C(NCc1cccnc1)Nc1ccc(Cl)cc1	-0.8	4	4.1%	-1.8	-14	6

Main list, from the start:
SMILES	TRPML1 ag	CtBP-E1A blk	PINK1 expr mod	D2 agonist	TRPML1 inh	Six1-Eya2 blk
Cc1nc(C)c(C(=O)C2=C(O)C(=O)N(CCN(C)C)C2c2cccs2)s1 (configuration not stated)	-1.0	2	-1.2%	-2.0	-3	3
S=C(NCc1cccnc1)Nc1ccc(Cl)cc1	-0.8	4	4.1%	-1.8	-14	6
CC(=O)c1c(C)oc2ccc(NS(=O)(=O)c3ccc(F)cc3C)cc12	-0.4	11	9.4%	0.2	36	13
COc1ccc(NC(=O)c2sc3nc(Cc4ccccc4)cc(C(F)(F)F)c3c2N)cc1OC	0.1	-6	5.0%	3.3	-4	6
COC(=O)c1cc(NC(=O)Cn2c(=O)cnc3ccccc32)cc(C(=O)OC)c1	0.2	-1	-0.1%	-1.1	10	-2
COc1ccccc1OCCNC(=O)c1ccc2c(c1)OCCO2	-1.0	-22	3.6%	-3.8	-6	5
CCCCNc1ccc2oc(-c3ccc(OC)cc3)c(-c3ccc(OC)c(F)c3)c2c1	-0.2	9	2.2%	0.5	31	4
CCOC(=O)C1=C(C)NC(SCC(=O)OC)=C(C#N)C1c1ccc(C(=O)OC)cc1 (configuration not stated)	4.8&0.9	8&4	-0.3%	-3.7&-0.4	6&8	30&2
CCOc1ccccc1C(=O)NC(C(=O)NCCc1ccccn1)C(C)C (configuration not stated)	0.5	-2	-2.3%	-5.4	-1	9
Cc1ccc(C)c(OCCCC(=O)N2CCOCC2)c1	1.2	3	-0.2%	-2.9	41	6
CSc1nc(Oc2ccc3ccccc3c2)c2ccccc2n1	-0.3	9	10%	-2.5	-2	33
CCOc1ccc(C(C)NC(=O)CN2C(=O)NC3(CCCCC3)C2=O)cc1OCC (configuration not stated)	0.2	2	1.6%	1.2	-9	-2
Cc1ccc2[nH]c(=O)c(CN(C(=O)c3cccs3)c3ccccc3)cc2c1	3.0	-3	9.6%	-5.3	-5	-4
CC(C)n1nc(C(=O)NC2CCCCCC2)c2ccccc2c1=O	2.8	4	3.2%	-5.4	-4	15
Cc1cc(=O)[nH]c(SCc2nc3ccccc3s2)n1	0.8	-5	5.4%	2.4	14	0

Profiles as entered above:
`S=C(NCc1cccnc1)Nc1ccc(Cl)cc1` across the screens: TRPML1 ag = -0.8; CtBP-E1A blk = 4; PINK1 expr mod = 4.1%; D2 agonist = -1.8; TRPML1 inh = -14; Six1-Eya2 blk = 6
`COc1ccc(NC(=O)c2sc3nc(Cc4ccccc4)cc(C(F)(F)F)c3c2N)cc1OC` across the screens: TRPML1 ag = 0.1; CtBP-E1A blk = -6; PINK1 expr mod = 5.0%; D2 agonist = 3.3; TRPML1 inh = -4; Six1-Eya2 blk = 6

New compounds follow.
SMILES	TRPML1 ag	CtBP-E1A blk	PINK1 expr mod	D2 agonist	TRPML1 inh	Six1-Eya2 blk
COc1cc(C2C(C#N)=C(N)Oc3c2oc(CO)cc3=O)cc(OC)c1OC (configuration not stated)	0.7	-2	1.1%	-2.6	-12	-11
O=C(Nc1ccccn1)c1cc(-c2cccnc2)nc2ccc(Br)cc12	-0.5	3	11%	0.9	2	4
CCC(CC)C(=O)N1CC(=O)Nc2ccc(Br)cc2C1c1ccccc1 (configuration not stated)	-0.5	-3	2.7%	-2.3	2	-8
CN(c1ccc(F)cc1)S(=O)(=O)c1ccc(Cl)c(C(=O)Nc2ccc3c(c2)CCC3)c1	-0.2	4	-0.3%	2.4	3	-4
Cc1cccc(Cn2c(SCc3ccc(C(=O)NCc4ccccc4F)cc3)nc3cccnc32)c1	0.3	·	6.1%	·	-14	·
CCN(CC)c1ccc(C=Nc2ccc(C#N)cc2)c(O)c1	1.2	-2	0.4%	1.0	-11	9
CN1CCc2c(sc3c2C(=O)NC(c2cn(Cc4ccccc4)c4ccccc24)N3)C1 (configuration not stated)	-0.1	-27	0.7%	-2.4	8	-13
CCCCNC(=S)NNC(=O)c1cc(-c2cccnc2)nc2ccccc12	0.9	-4	-1.1%	-18	-2	-13
CC1CCN(S(=O)(=O)c2csc(C(N)=O)c2)CC1	-0.6	·	1.4%	·	-3	·
O=C(Nc1ccc(Nc2ccccc2)cc1)Nc1ccccc1Cl	-0.3	?	18%	-4.6	-2	-28
CCCN(C(=O)CSc1nnnn1C)C1CCS(=O)(=O)C1 (configuration not stated)	-0.1	-19	0.3%	0.0	27	0
Cc1ccc(N2CCN(C(=S)Nc3ccccc3C)CC2)cc1	0.6	3	0.4%	-1.1	-6	-2
CCOC(=O)c1nnc(-c2ccccc2)nc1Sc1ccccc1Cl	2.8	13	-3.0%	-1.1	57	5
COC(=O)c1sccc1S(=O)(=O)N1CCN(c2ccc(C)cc2C)CC1	0.0	·	0.8%	·	23	·
COCC(C)n1c(C)cc(C(=O)CSc2ncccn2)c1C (configuration not stated)	-0.4	6	0.0%	-2.2	-1	2

Just PINK1 expr mod, TRPML1 ag and CtBP-E1A blk, for 4 of the compounds above:
canonical_smiles	PINK1 expr mod	TRPML1 ag	CtBP-E1A blk
Cc1nc(C)c(C(=O)C2=C(O)C(=O)N(CCN(C)C)C2c2cccs2)s1 (configuration not stated)	-1.2%	-1.0	2
S=C(NCc1cccnc1)Nc1ccc(Cl)cc1	4.1%	-0.8	4
CC(=O)c1c(C)oc2ccc(NS(=O)(=O)c3ccc(F)cc3C)cc12	9.4%	-0.4	11
COc1ccc(NC(=O)c2sc3nc(Cc4ccccc4)cc(C(F)(F)F)c3c2N)cc1OC	5.0%	0.1	-6

Further structures follow:
SMILES	TRPML1 ag	CtBP-E1A blk	PINK1 expr mod	D2 agonist	TRPML1 inh	Six1-Eya2 blk
CCC(=O)c1ccc(OCC(=O)N2CCN(c3ncccn3)CC2)cc1	0.6	-1	-2.1%	5.0	4	5
CCN(CC)C(CNC(=O)CSc1nnnn1-c1ccc(C)c(C)c1)c1ccco1 (configuration not stated)	0.3	-7	-0.7%	-1.3	4	-2
COc1cc(/C=C2\SC(=S)N(CCC(=O)Nc3ccccn3)C2=O)cc(OC)c1OC	-0.6	-3	14%	-18	-5	-18
Cc1ccc(C2/C(=C(/O)c3ccc4c(c3)CC(C)O4)C(=O)C(=O)N2CCCn2ccnc2)cc1 (configuration not stated)	-1.3	·	-1.8%	4.3	3	-2
CC(C)(C)c1cc[n+](-c2[nH]c(=O)sc2/C=N/N=C(\[O-])c2ccccc2)cc1	-0.1	-9	-0.7%	0.6	0	-3
Cc1ccc(N=CC2=C(O)CC(c3cccc(Cl)c3)CC2=O)cc1 (configuration not stated)	0.5	17	7.6%	-2.6	6	12
CCn1c2c(c(=O)n3ncc(C(=O)Nc4ccc(F)c(Cl)c4)c13)CN(Cc1ccc(OC)cc1)CC2	0.9	·	0.5%	·	-16	·
CNc1cncc(-c2ccccc2CO)n1	0.3	-3	0.3%	-5.4	1	-4
Oc1cccc(/C=N/N(Cc2ccccc2)c2ccccc2)c1	0.6	0	-0.6%	3.5	-10	2
CCOC(=O)C1CCN(C(=O)COc2ccc(N(C)S(=O)(=O)c3ccc(C)cc3)cc2)CC1	5.7	0	-1.3%	0.7	10	10
CCOC(=O)[C@@H]1[C@H]2COc3ccccc3[C@@H]2N2C(=O)N(c3ccc(OC)cc3)C(=O)[C@@]12C	-0.2	5	0.1%	-0.6	0	3
Cc1ccc(-n2c(=O)c3c(c4cc(C)ccc4n3C)n(CC(=O)NCC3CCCO3)c2=O)cc1 (configuration not stated)	-0.5&0.8	8	1.3%&2.4%	-2.6	-11&16	-1
COc1ccc(-c2cc(COc3ccccc3)on2)cc1	3.1	31	0.1%	-2.6	21	36
CSc1ccccc1C(=O)Nc1cccc(C(C)O)c1 (configuration not stated)	-0.5	3	·	-1.8	-2	4
CC(C)(C)n1nnnc1C(c1ccccc1F)N1CCN(C(=O)c2ccco2)CC1 (configuration not stated)	-0.5	-19	0.5%	2.3	-15	0
Cc1sc2c3ccsc3ccc2[n+]1C	4.8	-12	1.8%	3.9	9	9
O=C1c2ccccc2C(=O)N1CCCc1nc(-c2ccncc2)no1	-0.4	0	·	3.2	-18	-2
CCN(c1ccc(Cl)cc1)S(=O)(=O)c1nnc(NC(=O)c2ccco2)s1	0.7	·	0.9%	·	4	·
CCCOc1cccc(C(=O)N/N=C/c2coc3ccccc3c2=O)c1	-0.3	1	-0.2%	-2.2	-8	1
COc1ccc2[nH]c(-c3ccc(C)cc3)cc(=O)c2c1	-0.2	0	2.1%	0.3	7	4
O=[N+]([O-])c1ccc(N2CCN(c3ccc(O)cc3)CC2)c(Cl)c1	-0.3	-24	-2.6%	12	-1	?
OC(CCN1CCCCC1)(c1ccccc1)C1C[C@@H]2C=C[C@H]1C2 (some centres not stated)	-0.5	2	2.0%	-1.5	-3	-3
Cc1nn(CC(=O)OCC(=O)NCCc2ccc(F)cc2)c(C)c1[N+](=O)[O-]	2.1	8	0.9%	-0.4	-8	9
Cc1cccc(Nc2ncc3c(n2)CC(c2ccco2)CC3=O)c1 (configuration not stated)	1.1	-8	5.1%	-0.8	0	-5
Cc1ccc(C)c(N(CC(=O)NCCSCc2ccco2)S(C)(=O)=O)c1	-0.5	0	0.3%	-0.7	36	1
COc1ccc2cc1Oc1ccc(cc1)C[C@H]1c3cc(c(OC)cc3CCN1C)Oc1c(O)c(OC)cc3c1[C@H](C2)N(C)CC3	0.1	-4	0.4%	2.6	-16	-25
O=C(NCc1ccccc1C(F)(F)F)C1CC(c2cccc(F)c2)=NO1 (configuration not stated)	1.7	3	-1.3%	-2.9	12	6
Cc1cccc(NC(=O)CSc2ncnc3nc[nH]c23)c1C	0.7	2	-5.8%[38.3 µM]	1.0	0	0
C/C(=N/NS(C)(=O)=O)c1ccc2ccccc2c1	0.0	6	-3.7%	-1.2	7	-2
COc1ccc(C(=O)O/N=C(\N)Cc2ccc(Cl)cc2Cl)cc1OC	1.5	-10	-1.8%	?	-2	-9
Cc1ccc(S(=O)(=O)NCc2cccnc2)c(C)c1	-0.9	1	0.2%	-2.1	5	-4
O=C1NC(NS(=O)(=O)c2ccccc2)(C(F)(F)F)C(=O)N1Cc1cccnc1 (configuration not stated)	-0.1	14	-0.9%	-3.1	-8	0
CN(C)c1cccc2c(S(=O)(=O)Nc3ccccn3)cccc12	-0.2	-1	-0.6%	11	5	-3
